T cruzi repl – inhibitors of intracellular T. cruzi growth, primary screen, luminescence, NIH3T3 host cells; T. cruzi beta-gal in NIH3T3, 90 h; inhibition, % (test concentration not listed); 300,000 tested, 1.4% active;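 active means mean inhibition across valid replicates above about 55%, limit read from the data; inconclusive means mean below that limit but half or more replicates reach it; inactive means mean below it, under half of replicates reach it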;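 further: signal also drops with host cell toxicity which is not excluded here; 0% = plate median of DMSO wells and 100% = zero luminescence signal; higher percent means less beta-gal luminescence so fewer parasites; stock transfer was 50 nL into about 50 µL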
RanGTP-Imp inh – inhibitors of RanGTP-importin-beta interaction, primary screen, biochemical, FRET, CFP-Ran, YFP-importin-beta, homogeneous; Ran GTPase (GTP-bound) - importin-beta complex; cell-free CFP-Ran/YFP-importin-beta FRET ratio; inhibition, % (no concentration beside the values); 300,000 tested, 1.1% active;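 active means most replicates above 15%; inconclusive means exactly half above 15%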;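 further: 0% = DMSO wells and 100% = Ran loaded with GDP instead of GTP; wells of about 40 µL received 100 nL stock; the first replicate is given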
Calb FLC – C. albicans growth inhibition with fluconazole, primary screen, CaCi-2 strain, Alamar Blue fluorescence; C. albicans CaCi-2 (fluconazole-resistant clinical isolate) + fluconazole, 48 h; AID 1979, 2009; 300,000 tested, 0.57% active; growth inhibition, % (concentration not given with the values);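 active means most replicates above 75%; inconclusive means exactly half above 75%; inactive means most below 75%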;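 further: all wells also contain fluconazole at 8 µg/ml as a sub-toxic cotreatment; 0% = median of DMSO wells and 100% = median of geldanamycin control wells; wells of about 8 µL received 7.5 nL stock; the first replicate is given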
Vif TR-FRET – inhibitors of Vif binding to APOBEC3G peptide, primary screen, biochemical, TR-FRET, GST-Vif 1-94, biotin-A3G peptide, dose response retest (AID 1117319); Virion infectivity factor (Human immunodeficiency virus type 1 group M subtype B (isolate …; TR-FRET GST-Vif / biotin-A3G peptide binding; higher % means a stronger effect; test concentration not given here; strong numbers were not always called active; inhibition, %; hits with a dose series show IC50 in µM; 260,000 tested, 0.57% active;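 active means above the screen mean plus three standard deviations and confirmed in dose response; inconclusive means results disagree or hit not tested in dose response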;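 further: Vif residues 1-94 fused to GST binding biotinylated APOBEC3G peptide 110-148; 0% = full assay without inhibitor and 100% = GST in place of GST-Vif; retest series ran down from 100 µM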
Beta apoptosis – inhibitors of cytokine-induced beta cell apoptosis, primary screen, luminescence; INS-1E cytokine-induced death, ATP luminescence, 48 h; percent of positive-control rescue, neutral wells zero; protection from apoptosis, % (concentration not given with the values); 300,000 tested, 0.8% active; AID 435005, 2010;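 active means all replicates at 75% or more, or half of them and the mean; inconclusive means half reach 75% but not the mean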;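 further: 0% = cytokine-treated negative control wells and 100% = positive control rescue; higher means more ATP so stronger rescue from cytokine killing; wells of about 40 µL received 100 nL stock; the first replicate is given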
LANA-H2A inh – blockers of LANA interaction with H2A/H2B – biochemical, FP readout, HTS, primary screen; Protein LANA1 (Human herpesvirus 8 type P (isolate GK18)), Q9QR71; cell-free LANA-H2A/H2B peptide, fluorescence polarization; inhibition, % (no concentration beside the values); 320,000 tested, 0.6% active; in the data active means inhibition mostly above about 10%, no sharp cut-off; inactive means mostly below about 6.7%;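 further: stock transfer was 7.5 nL into about 10 µL; 0% = median of vehicle wells and 100% = median of positive control wells; one replicate is shown; the record names a cut of 25% in any replicate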
MLL AF4-AF9 inh – inhibitors of AF4 peptide binding to AF9, primary screen, biochemical, AlphaScreen, biotin-AF4 peptide, FLAG-AF9, single point; Protein AF-9 (Homo sapiens), P42568; inhibition, % at 10 µM; 350,000 tested, 0.47% active; AID 651704, 2012;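 active means every replicate reaching a set inhibition limit, whatever the replicate mean, cut at about 25% in these data; inconclusive means mean inhibition reaches that limit but some replicates miss it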;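 further: 0% = plate neutral control median and 100% = total signal loss; the record names both 10 and 1 µM as test concentration; the first replicate is given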
Target sequence (P42568 whole entry, looked up): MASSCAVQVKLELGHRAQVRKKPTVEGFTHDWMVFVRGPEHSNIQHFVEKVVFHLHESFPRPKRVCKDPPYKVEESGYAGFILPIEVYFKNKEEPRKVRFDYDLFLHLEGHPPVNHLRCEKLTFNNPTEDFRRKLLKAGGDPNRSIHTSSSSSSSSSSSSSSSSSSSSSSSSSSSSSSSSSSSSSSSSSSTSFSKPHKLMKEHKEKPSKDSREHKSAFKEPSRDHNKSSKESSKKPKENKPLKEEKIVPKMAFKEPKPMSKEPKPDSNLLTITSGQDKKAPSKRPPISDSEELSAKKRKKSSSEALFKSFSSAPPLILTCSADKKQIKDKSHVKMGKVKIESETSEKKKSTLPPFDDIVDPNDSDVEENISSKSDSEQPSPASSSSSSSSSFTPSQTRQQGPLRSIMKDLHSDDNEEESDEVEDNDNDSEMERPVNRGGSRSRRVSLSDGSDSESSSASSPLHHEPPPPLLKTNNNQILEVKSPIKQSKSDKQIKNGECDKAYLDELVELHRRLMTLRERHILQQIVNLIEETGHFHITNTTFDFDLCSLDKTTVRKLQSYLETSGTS
A1 inh – caspase 3/7 activation in MEF A1-2A-BIM cells, primary screen, A1 inhibitor project, cell-based, luminescence, HTS. Caspase-Glo 3/7 luminescence, 3 h; percent of clofoctol response, vehicle zero. AID 2462, 2010. 330,000 tested, 0.066% active. caspase activation, % (test concentration not listed);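 active means over half of replicate activation scores above 10%, or exactly half above 10 with the replicate mean above 10; inconclusive means replicate mean below 10 yet half the replicates above 10; inactive means over half of replicates below 10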;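 further: wells of about 30 µL received 50 nL stock; many hits fall short of the cut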
Active calls of the source: *; ? = inconclusive; / = not tested or not shown; & = joins results of further samples.

SMILES,Beta apoptosis,RanGTP-Imp inh,MLL AF4-AF9 inh,LANA-H2A inh,A1 inh,Calb FLC,T cruzi repl,Vif TR-FRET
CC1=NN(C(=O)c2ccccc2Cl)C(O)(c2cccnc2)C1 (stereo not given),1,-2.3,3.2,8.0,0.4,0,-9,/
Nc1nc(CSc2nc3ccccc3[nH]2)nc(N2CCOCC2)n1,-1,-0.1,/,-1.5,?,0,12,9%
C[C@@H](NC(=O)c1nc[nH]c1C(=O)N[C@H](C)c1ccccc1)c1ccccc1,-9,/,6.5,3.8,0.5,/,/,/
O=c1c(-c2cnn(-c3ccccc3)c2)coc2cc(O)ccc12,2,?,/,-1.4,-3.5,36,14,10%
COc1ccc(CNCCCO)cc1OC,-9,0.4,/,-1.4,1.1,-7,-5,13%
Cc1nc(-c2ccccc2)sc1C1(C)CC(c2ccccc2F)=NO1 (stereo not given),1,1.4,-1.9,2.9,-1.2,-2,3,/
CCn1c(C)csc1=NC(=O)c1ccccc1O,3,-2.4,-34,2.5,-0.3,12,7,0%
COc1ccccc1C(O)(c1ccccc1)C(CN1CCOCC1)c1ccccc1 (stereo not given),6,-3.5,-0.6,3.0,-1.9,-6,3,4%
CCOc1ccc(C(=O)NNC2CC(=O)N(CCc3ccccc3)C2=O)cc1OC (stereo not given),-1,3.6,9.3,1.9,2.0,3,-9,/
C/C(=N\Nc1ccc(Cl)c(C(=O)O)c1)c1ccc[nH]1,-2,-1.8,-12,-0.7,0.1,0,4,8.9µM*
COc1ccc(NC(=O)c2csc(Cc3ccc(Cl)cc3)n2)cc1,-4,3.9,-2.7,1.8,-0.3,6,0,-2%
CCN(CC(=O)Nc1c(F)cccc1F)C(=O)CSc1ccc(F)cc1,1,1.0,0.7,1.2,0.7,-4,5,2%
COc1ccc(C(CNC(=O)c2cc(S(=O)(=O)N3CCN(c4ccccc4)CC3)ccc2Cl)N(C)C)cc1 (stereo not given),4,/,13,-2.0,0.7,/,/,/
C#CC(C)(CC)NC(=O)c1cc(OC)c(OC)c(OC)c1 (stereo not given),-5,4.4,/,1.0,0.0,1,-6,7%
COc1ccccc1C(=O)Nc1nc(-c2ccc(S(=O)(=O)N3CCOCC3)cc2)cs1,85*,-2.3,/,3.6,-0.8,12,47,-60%
CSCCC(NC(=O)c1ccco1)C(=O)OCC(=O)N(Cc1ccccc1)C(C)(C)C (stereo not given),-4,0.0,-5.1,3.7,-0.5,-9,-18,2%
O=C(C1CCN(S(=O)(=O)c2cnc[nH]2)CC1)N(CCc1ccccc1)Cc1ccccc1,/,-3.8,1.3,2.9,-0.3,?,0,5%
Cc1cccc(NS(=O)(=O)c2cccs2)n1,-6,5.0,-34,-15,0.7,-3,-24,0%
Cc1ccc(C)c(C(=O)COC(=O)c2cc([N+](=O)[O-])ccc2NCCO)c1,-1,0.9,7.6,-4.3,0.1,-2,16,/
COCCOc1cc(Nc2nnc(C(F)(F)F)s2)c(Cl)cc1Cl,20,3.5,/,-4.6,0.7,1,-4,-2%
O=C(COC(=O)c1n[nH]c2ccccc12)NC(=O)NCc1ccco1,-9,8.3,/,2.9,0.7,4,-2,-6%
CC(C)CC(=O)Nc1ccc(C(=O)Cn2c(=O)oc3ccccc32)cc1,-5,1.1,-1.6,-3.9,-0.1,8,-6,-7%
CCCCOC(=O)Cn1c(=N)n(CCC)c2ccccc21,-3,2.1,/,1.0,0.7,3,-3,-1%
CC1CCCN(CC(O)COC(c2ccccc2)c2ccccc2)C1 (stereo not given),-1,1.4,-1.8,-3.0,0.3,-29,-2,19%
CSc1nc(NCc2ccccc2)c2c3c(sc2n1)CN(C)CC3,-3,-12,/,-7.2,0.1,-11,55*,15%
O=C1c2cccc3cc(Br)cc(c23)C(=O)N1Nc1ccccc1,/,3.6,/,4.3,0.9,-4,12,4%
Cc1ccc(C(C)(C)C)cc1S(=O)(=O)N1CC(=O)Nc2ccccc21,1,-2.8,4.1,2.1,0.6,-1,4,/
CCc1ccc(OCC(=O)Nc2ccc(-c3nc4ccccc4o3)c(O)c2)cc1,2,0.0,/,-4.2,-0.7,1,-7,-23%&-17%
Cc1cc(C(=O)N2CCc3ccccc3C2)on1,0,-0.9,-9.3,2.3,-0.2,-1,-9,/
COc1cc2cc(CN(Cc3cccs3)C(=S)Nc3ccccc3)c(=O)[nH]c2cc1OC,19,-0.2,/,-3.3,-0.7,9,34,17%
CCCc1nc2ccccc2[nH]1,-4,-1.2,/,-3.1,-0.1,-6,-11,0%
O=S(=O)(NCCCCCNS(=O)(=O)c1c(F)cccc1F)c1ccc2c(c1)OCCO2,6,/,-3.6,-6.1,0.4,/,/,/
CCC(c1nnnn1Cc1ccco1)N(Cc1cc2cc(C)cc(C)c2[nH]c1=O)CC1CCCO1 (stereo not given),2,-0.7,/,-4.2,-0.9,5,24,?
O=S(=O)(NCc1ccc2c(c1)OCO2)c1cccc(F)c1,/,1.1,2.0,1.9,1.0,4,-25,/
CC(C(=O)O)n1nnc2ccccc21 (stereo not given),-2,0.1,1.9,1.1,-0.5,0,-11,/
COC(=O)N/N=C/c1cn(Cc2ccccc2Cl)c2ccccc12,3,3.9,1.9,-2.4,0.2,7,14,/
CCOC(=O)c1nn(-c2ccc(F)cc2)c(=O)cc1OCC(=O)Nc1cccc(C)c1,-6,-0.5,-1.7,/,-0.3,-6,-2,-22%
CC(=O)Nc1cccc(NC(=O)c2ccco2)c1,-3,-2.0,/,-1.1,-0.4,4,2,-6%
Cc1ccc(-n2nc(C)c(C(=O)Nc3cccc(C(=O)NC4CC4)c3)n2)c(C)c1,-3,/,2.6,-5.4,1.3,/,/,?
CCOc1ccc(S(=O)(=O)N2CCN=C2Cc2ccccc2)cc1C,/,2.5,0.4,/,/,1,-11,/
Clc1ccccc1Cc1noc(CN2CCCCC2CCc2ccccn2)n1 (stereo not given),-4,0.1,3.4,-15,1.1,-4,38,-6%
COc1ccc2cc(S(=O)(=O)N3CCOCC3)ccc2c1,-2,-3.9,/,1.1,-1.2,-7,-5,-8%
C=CCNC(=S)N(Cc1ccccc1)Cc1ccccc1,8,-0.7,-2.5,7.7,0.1,-2,4,2%
Cc1ccccc1Nc1nc(N)nc(-c2oc3ccccc3c2C)n1,-21,-2.5,0.6,-2.3,-0.2,9,56*,4%
CN1CCC(=O)N([C@H](CSc2ccc(Br)cc2)c2ccccc2)CC1,1,4.0,1.7,2.1,0.8,-8,-5,/
O=C(CC1C(=O)NCCN1Cc1cccc(F)c1)NC1CCC1 (stereo not given),-4,1.6,1.8,4.9,-0.2,-2,-12,4%
CN(C)S(=O)(=O)c1ccc(NC(=O)/C=C/c2ccccc2Cl)cc1,0,-2.4,/,/,0.4,8,6,/
O=C(c1cc2ccccc2o1)N1CCN(S(=O)(=O)c2c(F)cccc2F)CC1,5,/,-4.2,-7.8,0.0,/,/,0%
CC(=O)C1=C(C)Nc2ncnn2C1c1ccccc1Cl (stereo not given),3,-0.3,7.5,-14,-0.3,-9,7,-5%
Cc1ccc(N2C(=O)CC(Sc3ccccc3C(=O)O)C2=O)c([N+](=O)[O-])c1 (stereo not given),-2,?,1.9,6.8,0.1,12,-17,?
O=C(Nc1cccnc1)c1ccc(N2CCCC2)c([N+](=O)[O-])c1,-2,3.9,-8.6,-3.3,1.3,-5,-4,2%
COc1cc2c(C(=O)NCc3ccccn3)cn(CC(C)C)c(=O)c2cc1OC,3,1.5,1.7,1.2,0.8,5,11,-7%
COc1cc(/C=C2\SC(=S)N(NS(=O)(=O)c3ccccc3)C2=O)cc(OC)c1OC,0,-2.9,-4.0,-2.4,0.4,30,13,-3%
CCN(CC(=O)NCc1cccs1)C(=O)CCc1c[nH]c2ccccc12,-6,3.9,-1.4,/,-0.4,-14,-6,10%
Cc1oc(-c2ccccc2Cl)nc1CN(C)C(C)c1ccon1 (stereo not given),-5,?,0.8,-1.1,0.3,-25,4,26%
Cc1cc(OCC(=O)N(C)C)c2c(-c3ccccc3)cc(=O)oc2c1,2,?,-4.0,0.9,0.5,-5,-1,-2%

Next part
SMILES,Beta apoptosis,RanGTP-Imp inh,MLL AF4-AF9 inh,LANA-H2A inh,A1 inh,Calb FLC,T cruzi repl,Vif TR-FRET
Cn1c(COc2ccc(C(=O)O)cc2)nc2ccccc21,-11,-0.1,-1.4,-0.8,-2.5,-6,4,2%
CCOc1ccc(S(=O)(=O)NCc2ccccn2)cc1NC(=O)c1ccccc1,/,-0.6,-1.3,-2.6,2.0,4,24,-3%
O=C1c2ccccc2NC(c2ccc(O)cc2)N1/N=C/c1ccc(O)cc1 (stereo not given),1,3.8,/,-2.1,0.6,0,-12,/
CCc1ccc(Nc2ccc(C(N)=O)cc2[N+](=O)[O-])cc1,5,2.8,-3.5,-0.2,0.0,1,-16,/
Nc1nnc(SCC(=O)OCC(=O)NC23CC4CC(CC(C4)C2)C3)s1,/,2.1,-4.8,1.0,0.2,0,-29,-1%
CCCSc1nc(C)cc(=O)[nH]1,-1,2.9,/,-3.1,-0.8,6,-8,1%
O=C(CSc1ncn[nH]1)N1N=C2/C(=C/c3ccco3)CCCC2C1c1ccco1 (stereo not given),-14,-2.6,/,-9.4,-1.3,8,-16,2%
O=C(N/N=C/c1ccncc1)c1cccc(NC(=O)c2ccccc2Cl)c1,2,1.1,1.3,1.7,-0.9,-3,2,/
C/C(=N\Nc1ccc(C)c(Cl)c1)c1ccncc1,4,1.3,12,6.9,0.1,-19,27,/
COc1ccc(C(=O)NC(C)C2CC3CCC2C3)cc1 (stereo not given),1,-1.7,-1.7,-6.0,-0.8,-8,-16,/
COc1ccc(Nc2nc(C)cc(-c3cc(-c4ccccc4)on3)n2)cc1,-6,0.5,-4.1,5.4,1.3,9,-3,/
O=C(COC(=O)c1cc(S(=O)(=O)N2CCCCC2)ccc1N1CCOCC1)NC1CCS(=O)(=O)C1 (stereo not given),-13,-1.2,-0.2,1.3,-1.4,-11,-2,-6%
CCc1ccc(-c2nc(CCl)cs2)cc1,-5,-0.2,-1.3,-5.9,-5.8,4,-5,/
CC1CCCCN1CCCNC(=O)C1CCCN(c2ncnc3c2nc2n3CCCCC2)C1 (stereo not given),-7,-1.2,-2.2,-0.4,-0.2,4,-27,/
Cc1ccsc1C(=O)Nc1nccs1,4,0.0,1.6,-0.7,0.0,-8,-6,30%
CCN(CC)S(=O)(=O)c1cccc(C(=O)OCc2cc(=O)n3nc(C)sc3n2)c1,-9,-2.4,/,0.9,-0.9,0,2,5%
CN(C(=O)CN1CCC(NC(=O)c2ccccc2Br)CC1)C1CCCCC1,0,-3.8,-0.5,-3.8,0.3,-4,4,/

Screening data (PubChem BioAssay)
